Screening data (PubChem)
Sa growth inh: S. aureus growth inhibition; S. aureus RN4220 growth, OD600, 20 h, 42 °C; stronger effect = lower value; actives 0.53% (n = 170,000); relative growth, % (test concentration not listed);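 active = growth at 42 °C up to 50% and 20 or more points under that at 30 °C, or under 10% at both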;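 also: 300 nL library stock went into each well; scaled to the means of positive and negative controls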
GIV Gai3 FP: GIV-Galpha-i interaction inhibition. P08753. Galpha-i3/FITC-GIV peptide fluorescence polarization, 90 min; stronger effect = lower value; scaled: aluminum fluoride 0%, vehicle 100%. percent of control (FP), % (no concentration beside the values). actives 0.42% (n = 210,000). AID 1224905;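 active = replicate mean at 85% of control or lower, very high polarization wells dropped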;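 also: wells of about 15 µL received 100 nL stock; the first replicate is given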
Target sequence (P08753 whole entry, looked up): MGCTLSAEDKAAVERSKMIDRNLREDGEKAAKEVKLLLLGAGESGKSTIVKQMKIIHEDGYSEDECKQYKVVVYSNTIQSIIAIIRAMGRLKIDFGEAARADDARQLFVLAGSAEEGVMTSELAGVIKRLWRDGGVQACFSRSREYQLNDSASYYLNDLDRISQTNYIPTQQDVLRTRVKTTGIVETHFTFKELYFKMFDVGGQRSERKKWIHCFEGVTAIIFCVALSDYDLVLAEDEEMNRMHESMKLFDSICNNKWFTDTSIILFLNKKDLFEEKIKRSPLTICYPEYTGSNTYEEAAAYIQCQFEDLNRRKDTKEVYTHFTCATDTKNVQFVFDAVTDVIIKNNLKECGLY
HCMV NEC inh: inhibitors of HCMV UL50-UL53 nuclear egress complex interaction; HTRF UL50-UL53 interaction, normalized percent inhibition; inhibition, % (concentration not given with the values); actives 0.15% (n = 190,000); AID 1918969;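 active = both replicates at 50% or more, plus weaker picks with an unusually low signal ratio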;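 also: stock transfer was 100 nL into about 20 µL; 0% = negative control wells and 100% = wells with untagged competitor protein; inactives centre near -12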
Sa growth inh second temp: recorded beside Sa growth inh, whose call it bears; relative growth, %; measured here: growth at 30 °C;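 optical density after 20 h as mean of two plates; 100% = untreated growth and lower means inhibition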
Numbers without * were called inactive; . = not tested or not shown; & = joins results of further samples.

Below each SMILES: Sa growth inh | Sa growth inh second temp | GIV Gai3 FP | HCMV NEC inh
Cc1c(NC(=O)c2cc(-c3cccc(O)c3)on2)c(=O)n(-c2ccccc2)n1C
    95 | 92 | 101 | 0
N#CCc1ccc(NC2(C#N)CCCC2)cc1
    96 | 69 | 96 | -17
Cc1ccc2c(=O)c(C(=O)c3ccccc3)coc2c1
    93 | 77 | 99 | .
O=C(CO)Nc1cccc(NC(=O)CO)n1
    103 | 94 | 111 | -2
Nc1cc(=O)[nH]c(Nc2ccc(Oc3ccccc3)cc2)n1
    111 | 94 | 100 | -1
CCCCn1cc(S(=O)(=O)c2cc(C)ccc2C)c(=O)c2cc(F)c(N3CCC(C)CC3)cc21
    89 | 93 | 104 | .
COc1cc(Cl)c(C)cc1NC(=O)c1cc2c(=O)oc3ccccc3c2s1
    86 | 107 | 113 | -3
O=C(Cc1cccs1)NC1CCCCCC1
    118 | 80 | 111 | -16
COc1ccccc1Nc1sc(C(=O)c2ccc(C)cc2C)c(N)c1S(=O)(=O)c1ccccc1
    98 | 91 | 101 | .
CC(C)NC(=O)Cn1nnc(-c2ccc(Cl)cc2)n1
    105 | 117 | 96 | 0
CCc1c(C)nc2ncnn2c1Sc1ccccc1NC(=O)C1CC1
    . | . | 97 | 10
CCc1ccccc1NC(=O)c1ccc2c(c1)c(C)c(C)n2Cc1ccccc1
    91 | 91 | 108 | .
COc1cc2c(cc1OC)C(c1cccs1)N(C(=O)c1cccs1)CC2 (stereo not given)
    89 | 103 | . | -8
Cc1nc(-n2nc(C)c(Cc3ccc4c(c3)OCO4)c2C)sc1C(=O)N1CCCC1
    . | . | 97 | -9
CCCCN(C)C(=O)c1c[nH]c2ccc(S(=O)(=O)Nc3ccc(OCC)cc3)cc2c1=O
    101 | 89 | 104 | -14
CN(C)Cn1nc(-c2ccccc2)n(-c2ccccc2)c1=S
    103 | 98 | . | -27
N#Cc1c(-n2ncnc2-c2cccc(Cl)c2)sc2c1CCCCC2
    100 | 98 | 110 | -8
COc1cc(C(=O)Cc2nccn2C)cc(OC)c1OC
    65 | 63 | . | -35
CC(C)(C)OC(=O)N1CCN(CCNC(=O)Nc2cc(Cl)cc(Cl)c2)CC1
    82 | 63 | 104 | -32
CN(C)c1ccc(NC(=O)CSc2nc3ccccc3cc2C#N)cc1
    103 | 69 | 101 | 10
CCc1ccccc1NC(=O)c1cnn2c(C)cc(C)nc12
    . | . | 102 | 22
CCOc1ccc(/C=C(\C#N)C(=O)NCc2ccco2)cc1OC
    103 | 105 | 93 | -16
CSc1ccc2c(c1)C(N1CCN(C)CC1)Cc1ccccc1S2 (stereo not given)
    94 | 87 | 112&98 | -32&-5&-17&7
O=C1NCC(COc2ccc(Cl)cc2)O1 (stereo not given)
    96 | 91 | . | -5
O=C(CN1CCOCC1)NN1C(=O)c2cccc3cccc(c23)C1=O
    104 | 96 | 101 | -121
c1ccc(-c2ccc(CNCC3CCCO3)o2)cc1 (stereo not given)
    . | . | 103 | -11
COc1ccccc1NC(=O)/C=C/c1cn(CCC#N)nc1-c1ccc(Cl)cc1
    104 | 93 | 102 | -23
O=C(COc1ccc(F)cc1)Nc1ccnn1C1CCCC1
    . | . | 108 | -18
O=C(CC1SC(=O)NC1=O)Nc1ccccc1O (stereo not given)
    . | . | 106 | -32
Cc1ccc(/C=C2\SC(=S)N(CC(=O)Nc3c(C)n(C)n(-c4ccccc4)c3=O)C2=O)cc1
    . | . | 102 | -18
CCC(=O)N1CCc2cc(CNC(=O)c3ccc(F)cc3)ccc21
    106 | 94 | 100 | .
CCOC(=O)c1cc(-c2ccc(Cl)cc2)[nH]c(=O)c1C#N
    111 | 90 | 120 | -88
CCCn1c(=N)c(C(=O)NC2CCCC2)cc2c(=O)n3ccccc3nc21
    91 | 89 | 103 | .
COc1ccc(OC)c(SCC(=O)O)c1
    100 | 89 | 99 | -15
C=CCSc1nc2c(c(=O)[nH]1)C(c1ccccc1)C(C(=O)OCC)=C(N)O2 (stereo not given)
    80 | 90 | . | -8
CC1Cc2ccccc2N1CC(=O)NCc1ccc2c(c1)OCO2 (stereo not given)
    94 | 96 | . | -15
CC(C)C(NS(=O)(=O)c1ccc2c(c1)OCCO2)C(=O)OCc1nc2ccsc2c(=O)[nH]1 (stereo not given)
    87 | 94 | . | -5
CCCCN(CC)C(=O)CSc1nc2c(sc3ccccc32)c(=O)n1CCc1ccccc1
    100 | 102 | 110 | .
Cc1ncc2c(c1OC(=O)c1ccccc1)COC(C)(C)OC2
    99 | 90 | 100 | .
CCOc1cccc(CNCC2NCCc3ccccc32)c1O (stereo not given)
    96 | 57 | 100 | -32

Some entries already given, showing only GIV Gai3 FP, Sa growth inh second temp and Sa growth inh.
Compound	GIV Gai3 FP	Sa growth inh second temp	Sa growth inh
CC(C)C(NS(=O)(=O)c1ccc2c(c1)OCCO2)C(=O)OCc1nc2ccsc2c(=O)[nH]1 (stereo not given)	.	94	87
CCCCN(CC)C(=O)CSc1nc2c(sc3ccccc32)c(=O)n1CCc1ccccc1	110	102	100

The results go on:
Below each SMILES: Sa growth inh | Sa growth inh second temp | GIV Gai3 FP | HCMV NEC inh
CN1C=CC=C/C1=C(/C#N)C(=O)Nc1ccc(Cl)cc1
    90 | 90 | . | -47
O=C(CN1CCN(CCN2C(=O)c3cccc4cccc(c34)C2=O)CC1)c1ccc(F)cc1
    . | . | 102 | -86
Cc1cc2nc(CSc3nnc(NC(=O)Nc4cccc(Cl)c4)s3)cc(=O)n2o1
    . | . | 105 | -27
CC1(C)CC(=O)C/C(=N/NC(N)=S)C1
    112 | 99 | 102 | -10
CC(Oc1ccccc1)c1nc(-c2ccc(S(=O)(=O)N3CCCC3)cc2)no1 (stereo not given)
    . | . | 113 | -1
c1ccc(C2CC3CC(c4ccccc4)N2O3)cc1 (stereo not given)
    103 | 100 | 105 | 10
Cc1ccc(OCC(=O)Nc2ccc3c(c2)NC(=O)CO3)cc1
    . | . | 107 | -11
CN1CCn2ccc3[nH]c(=O)nc1c32
    107 | 94 | 102 | 7
Cc1nc(-c2ccc(S(=O)(=O)N3CCCN(c4ccc(C(F)(F)F)cn4)CC3)s2)cs1
    99 | 96 | 109 | -21
CN(C)C(=O)CSc1nc(-c2ccccc2)c(-c2ccccc2)o1
    91 | 71 | 107 | 9
Cc1cccc2nc(-c3cccnc3)c(Nc3ccc(C(C)C)cc3)n12
    91 | 86 | 102 | -1
Cc1ccc(OCC(=O)Nc2nnc(S(=O)(=O)N3CCCCCC3)s2)cc1
    106 | 70 | 103 | -4
COc1ccc(CCNC(=O)c2nnc(Cc3ccc(Cl)cc3)o2)cc1OC
    122 | 81 | 103 | -4
COc1ccc(N2CCN(c3cc(C(=O)O)c4cc(NS(=O)(=O)N(C)C)ccc4n3)CC2)cc1
    . | . | 99 | -43
COc1ccc(CSc2nnc(C)s2)cc1F
    82 | 81 | 104 | 5
CCS(=O)c1ccccc1C(=O)OCC(=O)NCc1ccc(C)cc1 (stereo not given)
    110 | 77 | . | -19
Cc1ccc(NC(=O)CSc2ncc(-c3ccccc3)[nH]2)cc1
    106 | 92 | 102 | -5
O=C(Nc1cccc(-c2ccc3nncn3n2)c1)c1ccco1
    101 | 75 | 113 | -66
Cc1ccc(OCCNC(=O)C2CCCCC2)cc1
    112 | 98 | 100 | -9
O=C1C2CC=CCC2C(=O)N1CC(=O)N(Cc1nnc(-c2ccc(Cl)cc2)o1)C1CC1 (stereo not given)
    86 | 87 | . | -26
CC1CCCC(C)N1/N=C/c1ccccc1C(=O)O (stereo not given)
    103 | 96 | . | -18
COc1ccc2cc3cc(C(=O)N4CCN(c5ccc(C(C)=O)cc5)CC4)sc3nc2c1Cl
    95 | 83 | 101 | .
CCn1cc(C(=O)OCC(=O)N2C(C)CCCC2C)c(=O)c2ccc(C)nc21 (stereo not given)
    101 | 97 | . | -27
Cc1noc2c1C(c1ccc(O)cc1)C1=C(CC(c3ccc(O)cc3)CC1=O)N2 (stereo not given)
    . | . | 104 | -24
Cc1ccc(-n2nc(C)c3c(C(=O)Nc4ccc(C)cc4Cl)cc(C)nc32)cc1
    87 | 75 | 100 | .
CCOC(=O)c1c(C)[nH]c(C)c1S(=O)(=O)N1CCC(C(=O)N2CCn3c2nc2ccccc23)CC1
    . | . | 101 | -7
CCn1c(SCC(=O)NC(C)(C)C)nnc1-c1cccc(C)c1
    109 | 112 | 104 | -10
CN(C(=O)Cn1nnc(-c2ccccc2Cl)n1)c1ccccc1
    78 | 91 | . | -25
Cc1nc2c(Br)cc(Br)cc2c(=O)n1Cc1cccs1
    84 | 89 | 102 | 2
CCOc1ccc(/C=C/C(=O)Nc2sc3c(c2C(=O)OC)CCCC3)cc1
    102 | 108 | 109 | 0
O=C(O)CCc1ccc(F)cc1
    92 | 113 | . | -4
CCSc1nc2ccccc2n1CC(=O)N1CCCCC1
    104 | 89 | . | -12
CN(C)c1ccc(/C=C2/SC(=Nc3ccccc3)NC2=O)cc1
    66 | 93 | 148 | 0
CCS(=O)(=O)N1CCc2cc(OC)c(OC)cc2C1c1ccc(OC)c(OC)c1 (stereo not given)
    101 | 99 | 100 | -16
CNC(=O)CCCc1nc(-c2ccccc2)no1
    94 | 87 | 98 | .
O=C(Cc1cccs1)N1CCN(c2ccccc2)CC1
    91 | 82 | . | -23
Cc1nc2nc(SCC(=O)NC3CCCCC3)nn2c(C)c1Cc1ccccc1Cl
    115 | 90 | 102 | -2
N#Cc1ccc(C(=O)Nc2ccccc2-c2nc3ccccc3s2)c(F)c1
    77 | 98 | 102 | -2
CCOC(=O)C1=C(C)N=c2s/c(=C\c3ccc(C)c(OC)c3)c(=O)n2C1c1cc(OC)ccc1OC (stereo not given)
    . | . | 97 | -20
N#C/C(=C\c1ccc(-c2cccc(C(F)(F)F)c2)o1)c1ccccc1
    79 | 89 | . | -24

Single records (already shown). Screens in order: Sa growth inh	Sa growth inh second temp	GIV Gai3 FP	HCMV NEC inh
Profile of `CN(C)C(=O)CSc1nc(-c2ccccc2)c(-c2ccccc2)o1` = 91	71	107	9
Profile of `O=C(O)CCc1ccc(F)cc1` = 92	113	.	-4

New compounds follow:
Below each SMILES: Sa growth inh | Sa growth inh second temp | GIV Gai3 FP | HCMV NEC inh
O=C(NCC(c1ccc2c(c1)OCO2)N1CCOCC1)C(=O)Nc1ccc(F)cc1F (stereo not given)
    102 | 99 | 98 | .
N#Cc1ccc(OCCOC(=O)Cn2cnnn2)cc1
    90 | 97 | . | -22
CCN(c1cc(C)cc(C)c1)S(=O)(=O)c1nnc(NC(=O)c2cccc(F)c2)s1
    90 | 42 | 113 | -15
CCn1c(SCCOc2ccc(OC)cc2)nnc1C(CO)NC(=O)c1ccc(OC)cc1 (stereo not given)
    100 | 104 | 104 | 3
CCN(CC)c1ccc2cc(-c3nnc(-c4cccnc4)o3)c(=O)oc2c1
    103 | 88 | . | -44
O=C(Nc1ccno1)N1CCOCC1
    98 | 85 | 100 | -18
CCN(Cc1ccccc1)c1ccc(NS(=O)(=O)c2ccc(F)cc2)cc1C(=O)O
    . | . | 104 | -20
CCOc1cc(C2C3=C(CC(C)(C)CC3=O)Nc3ccccc3N2C(=O)c2ccccc2)ccc1O (stereo not given)
    . | . | 113 | -7
Cc1ccc2cc3c(nc2c1)N(S(=O)(=O)c1ccc(C(C)(C)C)cc1)CC3
    . | . | 99 | -9
O=C(CSc1nnc(Cc2ccccc2)o1)NCC(=O)Nc1ccc(F)c(F)c1F
    85 | 85 | . | -24
CC(=O)Nc1ccc(S(=O)(=O)Nc2cccc(-c3ccc(N4CCCCCC4)nn3)c2)cc1
    125 | 88 | 106 | .
Cn1c(=O)c2cc(S(=O)(=O)NC(C(=O)N3CCCCCC3)c3ccccc3)ccc2n(C)c1=O (stereo not given)
    104 | 77 | 109 | -2
O=C(/C=C\c1cn(-c2ccccc2)nc1-c1cccs1)N1CCOCC1
    88 | 35 | . | -42
COc1cccc(NCc2nnc(SC(C)c3nc4ccccc4c(=O)[nH]3)n2C2CCCCC2)c1 (stereo not given)
    119 | 96 | . | 14
O=C(Nc1ccc(SC(F)F)cc1)c1ccccc1C(F)(F)F
    92 | 87 | . | -2
CCCc1nc(N2CCCC2)c(C#N)c2c1CCCC2
    86 | 88 | 103 | -22
N#C/C(=C(/O)CSc1ncnc2c1cnn2-c1ccccc1)c1nc2ccccc2[nH]1
    96 | 93 | . | -1
O=C(Nc1sc2c(c1C(=O)NCc1ccco1)CCCC2)c1cc(=O)c2ccccc2o1
    92 | 78 | 103 | -15
O=C(Cc1ccccc1)N1N=C(c2ccc(Cl)cc2)CC1(O)C(F)(F)F (stereo not given)
    . | . | 104 | -22
Cc1ccc(S(=O)(=O)Cc2ccc(C(=O)N3CCCC3)o2)cc1
    125 | 90 | 96 | 0
N#CCSc1nc2nccnc2c(=O)n1CCc1ccccc1
    94 | 82 | 102 | .
CC1CN(C(=O)Nc2ccc(C(=O)NCCc3ccc(Cl)cc3)cc2)c2ccccc2S1 (stereo not given)
    102 | 89 | 101 | -12
O=S(=O)(Cc1ccccc1)N(O)c1ccccc1
    79 | 93 | . | 5
Cn1c(CNC(=O)OC(C)(C)C)nnc1SCc1c(F)cccc1Cl
    94 | 81 | 100 | -17
COc1ccc(/C=C/C(=O)OCc2ccccc2)cc1OC
    118 | 86 | . | -26
CC(=O)Nc1cc(C(=O)NCc2ccccc2Cl)ccc1Sc1ccc(F)cc1
    114 | 94 | 103 | .
COc1cc(/C=C2/C(=O)N(c3ccccc3)N=C2C)ccc1OCCOc1ccc(C)cc1
    . | . | 104 | -26
CCc1ccc(S(=O)(=O)c2nnn(-c3cccc(C)c3)c2N)cc1
    93 | 87 | 106 | -6
CCCN(CCC)CCNC(=O)C1CCCN1c1nnc(N2CCCC2=O)s1 (stereo not given)
    . | . | 105 | -25
